H5N1 CPE – MDCK cell protection from H5N1 avian flu; 96,000 compounds, 0.07% hits; inhibition, % at 50 µM; cytopathic effect, luminescence, 72 h; hits give high values; no value below 0 was filed and about half of the inactive calls have no number; reference of the scale not given here; in the data active means inhibition above about 25%
Numbers without * were called inactive; i = inactive. A portion of the library; the hit share may differ from the screen's.

structure | H5N1 CPE
C=CCn1c(SCc2nc3ccccc3c(=O)[nH]2)nc2ccccc2c1=O | 1.1
Cc1ccc(C)c(NC(=S)NC(NC(=O)Cc2cccc3ccccc23)C(Cl)(Cl)Cl)c1 (stereo unspecified) | 0.4
O=C(CSC1=Nc2ccccc2C2=NC(CC(=O)NC3CCCCC3)C(=O)N12)NCc1ccco1 (stereo unspecified) | i
CN1CCN(C2OC(=O)c3ccccc32)CC1 (stereo unspecified) | i
Cc1cc(C)n(Cc2cccc(F)c2)c(=O)c1C#N | i
CCCC/C(C)=N\NC(=O)CNS(=O)(=O)c1ccc([N+](=O)[O-])cc1 | 2.5
CSc1nc2n(n1)C(c1cc(Br)ccc1F)C(C(=O)N(C)C)=C(C)N2 (stereo unspecified) | i
O=C(NCCc1ccccc1)c1ccnc(/C=N/O)c1 | 8.2
CCCCOC(=O)Cn1c(=O)n(CC(=O)OCCCC)c2cc(C)ccc21 | 0.4
COc1ccc(-c2nc3c(=O)n(C)c(=O)[nH]c3n2CCc2ccccc2)cc1 | 0.6
COc1ccc(N2C(=O)CCC(C(=O)Nc3ccccn3)C2c2ccc(OC)c(OC)c2)cc1 (stereo unspecified) | 0.4
COc1cc(C(=O)OCCN2CCOCC2)cc(OC)c1OC | i

New compounds follow.
structure | H5N1 CPE
Cn1c(CCNC(=O)c2cccs2)nnc1SCC(=O)N1CCN(c2ccccc2)CC1 | 0.8
CC(=O)Nc1ccc(C(=O)OCC(=O)NC(=O)NC(C)(C)C)cc1 | 0.2
CN(CC(=O)N1CCN(c2ccccn2)CC1)S(=O)(=O)c1ccccc1 | 0.0
COc1ccc(CCNC(=O)c2n[nH]c(=O)c3ccccc23)cc1 | 0.3
COc1cccc(OC)c1-c1nnc(-c2cn(C)c3ccccc23)o1 | 1.4
CCN(CC)S(=O)(=O)c1cccc(C(=O)NC2CCCCC2)c1 | i
COc1ccc(OC)c2[nH]c(=O)c(CCNC(=O)c3ccc(S(=O)(=O)N4CCCCC4)cc3)cc12 | 1.0
COc1ccc(S(=O)(=O)N2CCc3ccccc32)cc1C(=O)OCc1c(C)noc1C | 0.4
COc1ccc(/C=N/NC(=O)c2ccc(C)cc2)cc1CN1CCN(c2ccc(F)cc2)CC1 | i
c1ccc(-n2nnnc2-n2nnc3ccccc32)cc1 | i
Cc1noc(C)c1CSCC(=O)OCC(=O)N1CC(=O)Nc2ccccc21 | 1.3
Cc1ccc2c(c1)NC(=O)C(CC(=O)NCc1ccc(F)cc1)O2 (stereo unspecified) | i

Among those listed so far, these have fluorine:
structure | H5N1 CPE
Cc1cc(C)n(Cc2cccc(F)c2)c(=O)c1C#N | i
CSc1nc2n(n1)C(c1cc(Br)ccc1F)C(C(=O)N(C)C)=C(C)N2 (stereo unspecified) | i
COc1ccc(/C=N/NC(=O)c2ccc(C)cc2)cc1CN1CCN(c2ccc(F)cc2)CC1 | i
Cc1ccc2c(c1)NC(=O)C(CC(=O)NCc1ccc(F)cc1)O2 (stereo unspecified) | i

The listing picks up; the 2 compounds before the break are reprinted first.
structure | H5N1 CPE
Cc1noc(C)c1CSCC(=O)OCC(=O)N1CC(=O)Nc2ccccc21 | 1.3
Cc1ccc2c(c1)NC(=O)C(CC(=O)NCc1ccc(F)cc1)O2 (stereo unspecified) | i
CC(C)Cn1cc(C(=O)NCc2cccs2)c2c3ccccc3n(C)c2c1=O | 1.5
CNC(=O)C1C(=S)NC(N)=C(C#N)C1c1ccccc1 (stereo unspecified) | 0.3
O=C(CN1C(=O)c2ccccc2C1=O)Nc1ccc(-c2nc3ccccc3o2)cc1 | 1.0
CN(C)C(=O)c1cn(N(C)c2ncc(C(F)(F)F)cc2Cl)c(=O)c2ccccc12 | i
Cc1onc(-c2ccccc2Cl)c1C(=O)NC1CCS(=O)(=O)C1 (stereo unspecified) | 0.7
CCOC(=O)C1CCN(Cc2nc3ccc(Cl)cc3n2CCO)CC1 | i
O=C(c1ccc2c(c1)OCCO2)C1CCN(C(=O)c2ccc(F)c(F)c2)CC1 | 2.7
COC(=O)c1ccc(Sc2ccc(C)cc2)c(N)c1 | i
Cc1cc(N2CCN(S(=O)(=O)Cc3ccccc3)CC2)n2ncnc2n1 | 0.3
COC(=O)c1cc2c(-c3ccccc3)c(C)c3ccccn3c-2c1C(=O)OC | 1.4
Cn1cccc1Cc1nnc(SCC(=O)Nc2nc3ccccc3s2)n1CCc1ccccc1 | i
O=C(CC(c1ccccc1)c1ccccc1)NCC1CCCO1 (stereo unspecified) | i

Going on with the list:
structure | H5N1 CPE
Cc1ccc(S(=O)(=O)c2c(N)n(/N=C/c3ccco3)c3nc4ccccc4nc23)cc1 | i
COc1ccccc1-n1nnnc1SCC(=O)Nc1cc(C)on1 | 1.2
Cc1ccc(S(=O)(=O)NC(CC(C)C)C(=O)NCc2ccco2)cc1 (stereo unspecified) | i
N#CC1=C(N)SC(N)=C(C#N)C1C1CC=CCC1 (stereo unspecified) | i
Clc1cccc(Cl)c1Cn1cnc(=NCc2ccco2)c2[nH]cnc21 | 0.5
O=C(C1CC1)N(CCN(C(=O)C1CC1)c1ccccc1)c1ccccc1 | i
CC(=O)Nc1ccc(-c2nnc(SCC(=O)c3ccc4c(c3)Cc3ccccc3-4)n2C)cc1 | i
CCNC(=O)NC(=O)COC(=O)CNC(=O)COc1ccccc1 | 1.2
COc1cccc(N=c2oc3ccc(OC)cc3cc2-c2nc3ccccc3[nH]2)c1 | i
CCOC(=O)c1cc(NC(=O)CSCCO)ccc1Cl | 0.3
CC(=O)Oc1ccc(N2C(=O)C3C4C=CC(CO)(O4)C3C2=O)cc1 (stereo unspecified) | 2.5
CCCOc1ccc(N2C(=O)CC(N3CCN(c4ccccc4OC)CC3)C2=O)cc1 (stereo unspecified) | 1.8

A draw from above in order of SMILES length, smallest number first.
structure | H5N1 CPE
CCOC(=O)c1cc(NC(=O)CSCCO)ccc1Cl | 0.3
N#CC1=C(N)SC(N)=C(C#N)C1C1CC=CCC1 (stereo unspecified) | i
Cc1ccc(S(=O)(=O)NC(CC(C)C)C(=O)NCc2ccco2)cc1 (stereo unspecified) | i

Next part:
structure | H5N1 CPE
Cc1ccc(NC(=O)c2c(-c3c(F)cccc3Cl)noc2C)cc1F | 1.2
CCN(CC)C(=O)C1CCCN(Cc2ccccc2)C1 (stereo unspecified) | i
O=C(c1ccc2c(c1)OCO2)N1CCN(c2ccccc2)CC1 | 0.7
CC(C)CNS(=O)(=O)c1ccc(OCC(=O)Nc2ccc3c(c2)OCO3)c(Cl)c1 | 0.0
Cn1c(=O)c2c(nc(CN3CCN(Cc4ccccc4)CC3)n2Cc2ccc(Cl)cc2)n(C)c1=O | 2.1
COc1ccc(NC(=O)CC2Sc3ncnn3C2=O)cc1 (stereo unspecified) | i
Cc1ccc2oc(=O)n(Cc3ccccc3OC(C)C)c2c1 | 0.2
Cc1csc(SCC(=O)Nc2ncc(Cl)c(C)c2Cl)n1 | 0.8
COc1ccccc1NC(=O)c1cc(C(=O)O)ccc1C(=O)O | i
COc1ccc(Cl)cc1NS(=O)(=O)c1ccc(S(=O)(=O)N2CCCC2)cc1 | 0.3
CCOc1ccccc1-c1nc(-c2cc3ccccc3nc2OC)no1 | i
CC1CCCCN1c1nnc(NC(=O)Cn2c(=O)oc3ccccc32)s1 (stereo unspecified) | i

Next compounds:
structure | H5N1 CPE
Cc1cc(Cl)c(S(=O)(=O)Nc2ccc3c(c2)OCCO3)cc1OCC(=O)NC1CCCCC1 | i
Cc1ccc(/C(N)=N/OC(=O)COc2ccccc2Cl)cc1 | i
CN(C(=O)CSC1=Nc2ccccc2C2=NC(c3ccccc3)C(=O)N12)C1CCCCC1 (stereo unspecified) | 0.8
O=C(NCCN1CCOCC1)c1cc(S(=O)(=O)NCCCN2CCCC2=O)ccc1Cl | i
CCCc1cc(C(=O)Nc2sc(C)c(C)c2C(=O)OCC)no1 | i
COc1ccc(NC(=O)CN2CC(c3ccccc3)CC2=O)cc1OC (stereo unspecified) | i
Cc1ccccc1C1CC(c2ccccc2)Nc2ncnn21 (stereo unspecified) | i
Cn1c(NC(=O)c2ccccc2)c(-c2ccccn2)c(=O)c2ccccc21 | 0.8
C=CCn1c(Sc2nncn2C)nc2c1c(=O)[nH]c(=O)n2C | i
COc1ccc(NC(=O)CSc2c(C)nn(-c3nnc(C)c(=O)[nH]3)c2C)cc1 | i
CCOC(=O)CC1C(=O)NCCN1C(=O)c1cc2c(=O)n3cccc(C)c3nc2s1 (stereo unspecified) | 1.9
COc1cc(C)nc(N2CCCC(C(=O)Nc3cc(Cl)ccc3OC)C2)n1 (stereo unspecified) | i

The list continues.
structure | H5N1 CPE
COc1cnn(-c2ccccc2)c(=O)c1SCc1ccc(Cl)cc1Cl | i
COc1ccc(Cl)cc1NC(=O)CN1CCC(n2nnc3ccccc32)CC1 | i
CCN(c1ccccc1)S(=O)(=O)c1ccc(F)cc1C | 3.6
COc1cccc(-c2cn3nc(C)c(C)nc3n2)c1 | i
CCN(CC)C(=O)c1cccc(-c2ccc(OC)cc2)c1 | 0.4
O=C(N/C(=C/c1ccco1)C(=O)N1CCCCCC1)c1cccs1 | 0.4
CCOc1ccc(C(=O)C(c2ccccc2)N2CCOCC2)cc1 (stereo unspecified) | 0.3
O=C(NC1CCS(=O)(=O)C1)c1cccc(S(=O)(=O)N2CCOCC2)c1 (stereo unspecified) | 0.5
COC(=O)C(CC(C)C)NC(=O)CNC(=O)c1ccccc1C (stereo unspecified) | i
Nc1ccc(Oc2ccc3nc(-c4ccccc4)c(-c4ccc([N+](=O)[O-])cc4)nc3c2)cc1 | 0.0
C=CCNc1nc(NCc2ccccc2)c(C#N)c2c1CN(C)CC2 | i
Cc1nc2nc(-c3ccco3)nn2c(C)c1Cl | 4.8

Next part.
structure | H5N1 CPE
CC(C)=C(C#N)c1nc2ccccc2s1 | i
c1ccc(-c2oc3ncnc(NCCN4CCOCC4)c3c2-c2ccccc2)cc1 | i
COc1ccccc1-n1nnnc1SCC(=O)NC1CCCC1 | 1.0
COc1cc(NC(=O)N2CCOCC2)cc(OC)c1 | i
N#Cc1cccc(NC(=O)CCC2CCCC2)c1 | i
O=C(c1cccc(-c2nnc(-c3ccccc3)o2)c1)N1CCCCCC1 | 0.5
CC(CCc1ccccc1)NC(=O)CSc1nc(N)cc(N)n1 (stereo unspecified) | 0.3
COC(=O)c1cccnc1N1CCN(c2ccccc2F)CC1 | i
CCC1Oc2ccccc2N(CC(=O)NCCN2CCc3ccccc3C2)C1=O (stereo unspecified) | 0.6
CCCCOc1nc(N)nc(-c2ccccc2)n1 | 2.7
CCCCCOC(=O)c1c(N)n(CCOC)c2nc3ccccc3nc12 | i
CCC1CCCCN1CCCNC(=O)CC1Oc2ccccc2NC1=O (stereo unspecified) | i

(further entries)
structure | H5N1 CPE
CC(=O)Nc1ccccc1C(=O)OCC(=O)c1cccc2ccccc12 | i
Cc1cc(Nc2ccccc2)n(CCO)n1 | 1.8
O=C(c1cc2ccccc2o1)c1cccs1 | i
COc1ccc(CC(=O)Nc2nncs2)cc1OC | 0.2
CC(Cc1ccccc1)NC(=O)NC(C)Cc1ccccc1 (stereo unspecified) | i
CCOc1ccc(-c2nn3c(-c4ccccc4)nnc3s2)cc1 | 2.5
O=C(NC1CCCCCC1)C1CCCN1S(=O)(=O)c1cccc2cccnc12 (stereo unspecified) | 1.6
Cc1sc(NC(=O)c2ccco2)nc1-c1ccc2c(c1)CC(C)N2C(=O)C1CC1 (stereo unspecified) | i
COc1cc(CCC(=O)OCc2nnc(-c3ccccc3)o2)cc(OC)c1OC | i
O=c1cccccc1NCc1ccccc1 | 4.8
CCOC(=O)c1[nH]c(C)c(C(=O)OC(C)C(=O)Nc2ncc(Cl)cc2Cl)c1C (stereo unspecified) | 1.3
CCOC(=O)N1CCN(C(=O)c2ccc3c(=O)n(-c4ccc(F)cc4)c(=S)[nH]c3c2)CC1 | 0.5

The listing continues:
structure | H5N1 CPE
Cc1cccc(N2CC34C=CC(O3)C(C(=O)O)C4C2=O)c1 (stereo unspecified) | 0.4
O=C(COc1ccc(S(=O)(=O)NC2CCCCC2)cc1)Nc1ccc2c(c1)OCCO2 | 2.3
COC(=O)CN1C(=O)C2(C(C#N)=C(N)Oc3c2c(C)nn3-c2ccccc2)c2ccccc21 (stereo unspecified) | 4.5
Cc1ccn2c(C(=O)CSc3ccccc3Cl)c(C)nc2c1 | i
CN(Cc1ccccc1)c1nc2c(c(=O)n(C)c(=O)n2C)n1CCSc1ncccn1 | 1.6
O=C(O)Cn1nc(C(F)(F)F)c2c1CCC2 | i
CCOc1ccc(-c2cnc(SCC(N)=O)nc2N)cc1 | i
CCOCCn1cnc2sc(C(=O)NCC(=O)OCC)c(C)c2c1=O | i
Nn1c(SCC(=O)Nc2ccc(F)cc2F)nnc1C1CCCCC1 | i
CCc1nnc(NS(=O)(=O)c2ccc(NS(=O)(=O)c3ccccc3)cc2)s1 | 0.6
C/C(=N\O)C(C)(C)NC(=O)Nc1ccc(Cl)cc1 | i
Cc1nn(C)c(C)c1S(=O)(=O)N1CCCC(C(=O)N2CCN(c3ccc(Cl)cc3)CC2)C1 (stereo unspecified) | i

(next part)
structure | H5N1 CPE
COC(=O)c1ccc2c(c1)C(C)(C)C(/C=C/c1ccc(O)cc1)=[N+]2C | i
Cc1ccccc1-n1c(Cn2c(=O)sc3ccccc32)nnc1SC(C)C | 8.8
C/C(=N\Nc1ccc(F)cc1F)c1ccc(F)cc1 | i
COc1ccc(NC(=S)Nc2nc(CC(=O)Nc3ccccc3OC)cs2)cc1 | i
COc1cc2[nH]c3c(=O)n(CCN4CCCCC4)cnc3c2cc1OC | 1.0

By substructure, those above with a COOH group.
structure | H5N1 CPE
COc1ccccc1NC(=O)c1cc(C(=O)O)ccc1C(=O)O | i
Cc1cccc(N2CC34C=CC(O3)C(C(=O)O)C4C2=O)c1 (stereo unspecified) | 0.4
O=C(O)Cn1nc(C(F)(F)F)c2c1CCC2 | i
